ClpP mod: qHTS Assay for Activators of ClpP. ATP-dependent Clp protease proteolytic subunit (Bacillus subtilis (strain 168)), P80244. purified B. subtilis ClpP, FRET peptide cleavage, 20 min. Potency, µM (doses to about 57.5 µM), inactives show at the top dose activity change, negative = active. hit rate 1.9% among 340,000. AID 651965, 2013; active = well fitted falling curve with a large enough effect; inconclusive = small, poorly fitted or top-dose-only effect; inactive = no such curve, though single readings can be large or run the other way; also: potency is read from the fitted curve at half-maximal effect; the source files actives as falling curves though it sought activators and does not explain the sign; nearly all actives have a fitted effect of over 65% in size; many hits overshoot -100%
Target sequence (P80244 whole entry, looked up): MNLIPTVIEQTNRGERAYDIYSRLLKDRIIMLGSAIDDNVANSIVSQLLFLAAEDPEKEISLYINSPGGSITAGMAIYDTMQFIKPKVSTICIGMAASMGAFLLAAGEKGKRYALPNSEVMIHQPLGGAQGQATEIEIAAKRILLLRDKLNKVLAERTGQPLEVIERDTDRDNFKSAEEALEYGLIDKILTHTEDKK
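ClpP 10 microg/mL final, pH 8 Tris/KCl buffer with BSA, glycerol, Tween-20; compound pinned in; FRET-FV substrate; RT 20 min; Ex320/Em430; ΔFRET vs ADEP 5.8 microM, DMSO, no enzyme.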
TRPV1 potentiator: potentiators of human vanilloid receptor 1 (TRPV1). Q8NER1. TRPV1-expressing cells, Fluo-8 calcium influx, capsaicin EC20 potentiation; host cell line not named in the record; control for the full effect not named in the record. potentiation, % at 8.33 µM. hit rate 0.02% among 320,000. AID 540277; active means potentiation above 80%; inconclusive means 30% to 80%; inactive means below 30%; also: 0% is about no effect
Target sequence (Q8NER1 whole entry, looked up): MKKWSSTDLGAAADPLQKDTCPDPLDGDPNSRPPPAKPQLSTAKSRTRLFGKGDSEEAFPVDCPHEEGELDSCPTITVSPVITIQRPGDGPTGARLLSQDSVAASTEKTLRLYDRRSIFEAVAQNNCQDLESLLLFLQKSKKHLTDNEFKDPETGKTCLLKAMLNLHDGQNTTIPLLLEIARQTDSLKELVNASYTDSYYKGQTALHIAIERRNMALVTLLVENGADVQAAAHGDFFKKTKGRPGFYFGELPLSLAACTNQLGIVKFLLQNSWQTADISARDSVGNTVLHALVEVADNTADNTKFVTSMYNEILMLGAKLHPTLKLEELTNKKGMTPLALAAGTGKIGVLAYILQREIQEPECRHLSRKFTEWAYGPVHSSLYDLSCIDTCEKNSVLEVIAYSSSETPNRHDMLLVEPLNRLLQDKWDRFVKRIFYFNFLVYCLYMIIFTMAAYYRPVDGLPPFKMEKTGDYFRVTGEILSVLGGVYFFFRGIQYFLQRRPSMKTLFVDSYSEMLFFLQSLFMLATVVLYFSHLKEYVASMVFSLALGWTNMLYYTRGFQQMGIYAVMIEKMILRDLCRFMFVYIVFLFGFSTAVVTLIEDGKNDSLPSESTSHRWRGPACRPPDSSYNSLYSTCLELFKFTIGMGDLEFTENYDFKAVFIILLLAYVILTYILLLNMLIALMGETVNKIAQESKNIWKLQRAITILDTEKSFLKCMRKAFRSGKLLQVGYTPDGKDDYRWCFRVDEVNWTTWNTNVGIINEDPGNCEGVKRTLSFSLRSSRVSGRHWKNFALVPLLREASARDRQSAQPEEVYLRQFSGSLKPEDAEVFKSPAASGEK
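TRPV1-expressing cells were cultured overnight at 35.5C and loaded with Fluo-8 calcium dye for 40 to 90 min at room temperature. After a 10 s baseline, compound was added and calcium influx was read kinetically for 3 min (ex 480/em 520 nm).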
Sfp inh: inhibitors of Bacillus subtilis Sfp phosphopantetheinyl transferase; Q9F4F7; AID 1490; Biochemical Sfp PPTase activity, qHTS; hit rate 3.5% among 310,000; Potency, µM, without a hit: max response, negative = inhibition, most hits filed as inhibitors; active = well fitted inhibition curve with a large enough effect; inconclusive = small, poorly fitted or top-dose-only effect, or another doubt; inactive = no such curve, though single readings can be large or run the other way;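 also: the enzyme is Sfp with the accession as filed and its product quenches rhodamine fluorescence; potency is read from the fitted curve at half-maximal effect; 0% = enzyme reaction without inhibitor and -100% = no enzyme wells; top concentration of the series not given in the record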
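Fluorescence-quenching assay: 15 nM Sfp-PPTase preincubated 15 min at room temperature with compound, then 5 uM rhodamine-CoA and 12.5 uM BHQ-2-labelled YbbR peptide added. Fluorescence (ex 525/em 598 nm) read at start and after 30 min; difference gives rate.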
TRPML1 inh: inhibitors of human TRPML1 channel; Q9GZU1; TRPML1-inducible cells, Ca2+ dye fluorescence, FDSS; hits give low values; inhibition of EC80 agonist-evoked calcium signal; activity change, negative = inhibition, % (test concentration not listed); hit rate 0.02% among 390,000; AID 624415; in the data active means activity change below about -50%; inconclusive means about -30% to -50%; inactive means above about -30%;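 also: stimulus is agonist 54-4 at its EC80 concentration; % is scaled to controls: 0 for no effect and ±100 for the full control effect; compound concentration not given in the record; the text of the record puts the active cut at -80%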
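Tet-induced TRPML1-DL cells loaded with Ca8 no-wash calcium dye were read kinetically on FDSS. Compound addition was followed by EC80 agonist 54-4 (4 uM final); inhibition was read over 110 s.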
gsp antag: antagonizes gsp, the McCune-Albright syndrome mutation; gsp-mutant cells, cAMP HTRF, 30 min; control for the full effect not named in the record; Potency, µM (series often up to 76.9 µM), for inactives: at the top dose activity change, negative = inhibition, usual class: inhibitors; hit rate 0.4% among 340,000; active = falling curve of any shape with a large fitted effect; inconclusive = falling curve, mostly with a smaller effect; inactive = flat or rising curve; cell line not stated here;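 also: intracellular cAMP measured with PDE inhibitor Ro 20-1724 present during compound exposure; potency is read from the fitted curve at half-maximal effect; % is scaled to controls: 0 for no effect and ±100 for the full control effect; nearly all actives have a fitted effect of over 65% in size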
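HTRF cAMP measurement after 30 min RT detection following 30 min, 37C compound treatment alongside […] (added as 300 uM solution) in G418-selected cells seeded at 2000/well and grown 16–24 h.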
gsp ag: gsp mutant agonism | hit rate 0.13% among 340,000 | gsp mutant cells, cAMP HTRF, 30 min; control for the full effect not named in the record | Potency, µM (titrated, usually from 76.9 µM), without a hit: at the highest dose activation (cAMP increase), most hits filed as activators; active = well fitted activation curve with a large enough effect; inconclusive = small, poorly fitted or top-dose-only effect, or another doubt; inactive = no such curve, though single readings can be large or run the other way; cell line not stated here;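 also: phosphodiesterase inhibitor Ro 20-1724 added with compounds to block cAMP breakdown; potency is read from the fitted curve at half-maximal effect; nearly all actives have a fitted effect of over 60% in size; about a fifth of the inactives were tested at one dose only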
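Cells in DMEM/10% FBS with G418 were pretreated with compounds in DMSO plus […] (300 uM stock) for 30 min at 37C. cAMP was measured by HTRF (cAMP-d2 plus anti-cAMP antibody-K) after 30 min at room temperature.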
Menin-MLL FL inh: inhibitors of human menin-MLL interaction, wild-type MLL peptide; FP activity change, % at 61.4 µM; AID 1766; 290,000 tested, under 10 active; Fluorescence polarization, fluorescein-MLL peptide displacement from menin; inconclusive = falling polarisation curve, or a change in total fluorescence; inactive = total fluorescence flat and polarisation flat or rising; no compound was filed as active; the % refers to the polarisation; negative = inhibition;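 also: % of control where 0% means no effect; inhibitors lower the polarisation; unlabelled MLL peptide was the positive control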
Numbers without * were called inactive; ? = inconclusive; . = not tested or not shown; [ ] = dose if it differs, or a comment.

SMILES	ClpP mod	TRPV1 potentiator	Sfp inh	TRPML1 inh	gsp antag	gsp ag	Menin-MLL FL inh
Cc1ccc(CCNC(=O)c2cc(-c3ccncc3)nc3ccccc23)cc1	-3.7%	2	8%	-1	-14%	0%	3.6
COc1ccc(NC(=O)CSCC(=O)NC2(C)CCS(=O)(=O)C2)cc1 (stereo not given)	2.7%	3	6%	-2	14%	0%[15.4 µM]	.
CCCN(CC(=O)Nc1ccc(Cl)cc1Cl)Cc1cc(=O)n2ccsc2n1	.	-13	-3%	22	-8%	3%[15.4 µM]	0.5
Cc1cccn2cc(-c3ccc(F)cc3)cc12	.	4	?	2	-8%	?	-12
O=C(CCSc1nnc(-c2ccco2)o1)Nc1ccccc1	3.5%	-3	-1%	11	-7%	0%	-3.1
CCC(Sc1nc(N)cc(=O)[nH]1)C(=O)NC(C(=O)OC)c1ccccc1 (stereo not given)	-1.3%	9	13%	-12	5%	14%	-1.4
CCn1nc(NS(=O)(=O)c2ccccc2[N+](=O)[O-])c2cc3cccc(C)c3nc21	-1.9%	21	3%	-8	-6%	-35%[inhibitor]	.
COc1ccc2[nH]cc(CCNC(=O)CS(=O)(=O)Cc3ccccc3)c2c1	.	8	6%	2	2%	9%	0.3
C=CCN(CC=C)C(=O)c1ccc(OC2CCN(C(C)=O)CC2)c(OC)c1	1.9%	8	15%	5	10%	-13%	3.1
O=C(CN1C(=O)NC2(CCOc3ccccc32)C1=O)Nc1ccc(F)c(F)c1F (stereo not given)	.	3	19%	11	-12%	-32%[15.4 µM]	-5.0
CC(=O)Nc1ccc(S(=O)(=O)NC(C)C(=O)NCCc2ccc(F)cc2)cc1 (stereo not given)	.	6	4%	-7	12%	-9%[15.4 µM]	3.0
CCc1cccc(CC)c1NC(=O)C1CC(=O)N(c2ccc3c(c2)OCCO3)C1 (stereo not given)	-0.4%	?	16%	14	3%	-48%[inhibitor]	-0.1
COc1ccc(NC(=O)CSc2ncccn2)cc1S(=O)(=O)N1CCCCC1	-2.8%	14	.	-2	-8%	-50%[inhibitor]	.
CSCCC(NS(=O)(=O)c1ccccc1F)C(=O)NCc1cccs1 (stereo not given)	0.4%	2	.	23	2%	-67%[inhibitor]	.
Cc1ccc(OCc2nc(C#N)c(N3CCN(Cc4ccccc4)CC3)o2)cc1	-2.2%	3	2%	-1	?	21%	0.6
CCN(Cc1ccccc1)C(c1cc2ccc(C)cc2[nH]c1=O)c1nnnn1CCOC (stereo not given)	-29%	1	14%	-13	2%	2%	-2.1
Cc1ccc([C@@H]2CC=C(C(=O)O)[C@H](c3ccccc3F)N2S(=O)(=O)c2ccccc2C)cc1	2.2%	.	.	-10	-6%	.	.
CC(C)(C)c1ccc(CCC2OCC(CN3CCOCC3)O2)cc1 (stereo not given)	.	-22	-9%	5	6%	-8%	0.5
COc1ccc(S(=O)(=O)c2c(O)c3ccc(C(=O)Nc4ccccc4Cl)cc3[nH]c2=O)cc1	-4.2%	5	18%	-24	8%	?	-0.2
COc1ccccc1N1CCN(C(=O)c2ccccc2N(C)S(=O)(=O)c2ccc(C)cc2)CC1	1.6%	6	4%	4	-11%	-72%	.
O=C(CN1CCN(Cc2cccc(Cl)c2)C1=O)NCC1CCCO1 (stereo not given)	1.3%	-4	3%	4	3%	-7%	2.3
O=C1CN(C(=O)COC(=O)c2ccc[n+]([O-])c2)c2ccccc2N1	.	2	23%	10	-12%	14%[15.4 µM]	0.1
O=C(Cc1csc(-c2cccc(F)c2)n1)Nc1cccc(S(=O)(=O)NC2=NCCC2)c1	-4.2%	.	.	-7	.	41%	.
COC(=O)c1cc(NCc2ccc3c(c2)OCO3)ccc1N1CCOCC1	-3.1%	17	-5%	18	-4%	-5%	4.8
O=C(NC1CCN(Cc2ccccc2)CC1)c1cc(-c2ccccn2)nc2ccccc12	-2.5%	1	10%	-5	-7%	-30%[inhibitor]	-0.3
CC(C)c1ccc(NC(=O)CNS(=O)(=O)c2ccc(F)cc2)cc1	1.1%	-11	14%	13	1%	-26%	4.4
Cc1ccc(Cl)c(OCC(=O)Nc2sc(C)c(C)c2C#N)c1	2.5%	-13	-27%	4	2%	5%[15.4 µM]	14
O=C(Nn1cnnc1)c1ccc(Cl)cc1	-1.1%	1	5%	.	7%	-6%	-2.4
COc1ccc(/C=C2\SC(N3CCCCC3)=NC2=O)cc1OC	.	-28	17%	-27	3%	-35%[inhibitor]	-3.2
COc1ccc(N(CC(=O)NN=C2CCCC2)S(=O)(=O)c2ccccc2)cc1Cl	1.1%	5	18%	1	-6%	-1%[15.4 µM]	0.9
CN(Cc1cnccn1)C(=O)C1CCC(=O)N(CCc2ccccc2)C1 (stereo not given)	0.4%	-11	10%	0	3%	1%	-0.3
O=C(Nc1ccccn1)c1ccc(NC(=O)c2ccco2)cc1	1.2%	10	26%	-12	-13%	-21%	0.7
Cc1nc2ccccc2c(=O)n1/N=C/c1ccc(O)c(O)c1O	1.8%	14	7.1µM*	-8	-10%	-9%	?
CCCC(C)C(=O)Nc1nc(C)c(-c2csc(Nc3ccc(Cl)cc3)n2)s1 (stereo not given)	-6.9%	1	-12%	-4	10%	.	2.2
CCSc1nnc(NC(=O)C2Cc3ccccc3CN2C(=O)c2ccco2)s1 (stereo not given)	0.5%	14	40µM*	-8	-14%	-23%	13
CC(CN1CCCC1)OC(=O)Cc1ccc(Cl)cc1 (stereo not given)	-9.8%	3	3%	29	6%	8%[15.4 µM]	0.1
Cc1ccn2cc(CNC(=O)c3ccc(Br)o3)nc2c1	-9.6%	11	12%	12	6%	22%	0.1
Cc1cc(C)n(CC(=O)NNC(=O)C2CC(=O)N(Cc3ccccc3Cl)C2)n1 (stereo not given)	-5.3%	-7	26%	-12	19%	6%	.
CC1CCN(C(=O)Cn2c3ccc(F)cc3c3nc4n(c(=O)c32)CCCS4)CC1	4.0%	-6	19%	-3	-3%	4%	.
Cc1ccc(S(=O)(=O)N2CCN(C(=O)COC(=O)CNC(=O)c3ccccc3F)CC2)c(C)c1	-0.8%	.	.	-15	-2%	-196%	.
CCc1ccc2[nH]c3nc(SCC(=O)NNC(=O)c4ccc(C(C)(C)C)cc4)nnc3c2c1	-1.5%	14	24%	1	1%	19%	2.3
O=C(Nc1ccc(-c2nc3cccnc3s2)cc1)c1ccco1	4.0%	14	15%	-13	-14%	-30%	-0.9
COCCNC(=O)c1ccccc1NC(=O)c1cccc([N+](=O)[O-])c1C	.	-5	16%	23	2%	-1%	-0.1
Cc1ccc(C)c(-n2nnnc2SCC(=O)c2ccc3c(c2)NC(=O)CO3)c1	1.7%	-9	-4%	4	-9%	-44%[inhibitor]	2.8
CC1(C)Cc2c(C#N)c(N)sc(=S)c2CO1	1.0%	15	45µM*	-2	9%	11%	?
CCn1c(SCC(=O)Nc2ncc(C(F)(F)F)cc2Cl)nnc1-c1cccc(C)c1	-1.1%	2	10%	?	-2%	?	-0.3
COc1ccnc(Oc2ccc3ccccc3c2)c1C#N	-4.4%	22	18%	13	1%	-8%	-0.1
NC1(N)OC(CN2C(=O)c3ccccc3C2=O)CS1 (stereo not given)	-2.3%	-1	6%	6	9%	2%	-2.5
O=C1CSc2nc3ccccc3n21	-2.5%	2	-9%	-9	-8%	6%	?
CCCNC(=O)Cn1c(=O)n(CC(=O)N2CCCCC2)c(=O)c2sccc21	-0.4%	10	7%	-11	9%	16%	.
(list continues)
SMILES	ClpP mod	TRPV1 potentiator	Sfp inh	TRPML1 inh	gsp antag	gsp ag	Menin-MLL FL inh
Cc1nn(C(C)(C)C)c(NC(=O)c2ccc(Cl)cc2Cl)c1Br	.	-9	11%	-18	5%	6%[15.4 µM]	4.3
COc1ccc(S(=O)(=O)N2c3ccccc3NC(=O)CC2C)cc1 (stereo not given)	-0.9%	3	23%	-1	9%	-27%	-0.3
CC(SC1CCCC1)C(=O)Nc1ccnn1C(C)C (stereo not given)	-0.6%	8	12%	-14	-2%	14%	0.5
COc1ccc(N(C(=O)c2ccco2)S(=O)(=O)c2ccc(F)cc2)cc1	0.5%	-7	13%	3	-15%	-21%	1.7
O=C(N/N=C/c1ccccc1)c1ccc(OCc2ccccc2)cc1	1.9%	23	15%	15	0%	1%	6.0
CN1C(=O)N(C)C2(C)CC1(C)N(C)C(=O)N2C	-0.8%	3	24%	4	2%	5%	-3.1
Cc1ccccc1CNC(=O)Nc1cccs1	0.8%	-13	20µM*	-14	-1%	1%	?
O=C1C(=O)N(CCCN2CCOCC2)C(c2ccc(F)cc2)/C1=C(\O)c1ccc2c(c1)OCCO2 (stereo not given)	1.0%	3	8%	-9	39%[activator]	32µM*	.
CN(C(=S)NC1=CCS(=O)(=O)C1)C1CCCCC1	-1.1%	-3	-19%	2	5%	-1%	-0.6
O=C(CCN1C(=O)S/C(=C\C=C\c2ccccc2)C1=O)Nc1ccc(O)cc1	3.3%	-20	-23%	-8	1%	-26%	2.3
Cc1ccc(/C(COc2ccccc2O)=N\O)cc1	-0.7%	6	12%	29	-17%	-42%[inhibitor]	2.8
O=C(Cc1cccs1)NNC(=O)C12CC3CC(CC(C3)C1)C2	1.3%	-4	7%	0	7%	0%	0.2
COc1cccc(CN2CCNC(=O)C2CC(=O)NCCCC2CCCC2)c1OC (stereo not given)	0.3%	-14	12%	15	-11%	-9%	7.5

Sfp inh, what is marked active above.
Molecule	Sfp inh	TRPML1 inh	gsp ag	Menin-MLL FL inh
Cc1nc2ccccc2c(=O)n1/N=C/c1ccc(O)c(O)c1O	7.1µM*	-8	-9%	?
CCSc1nnc(NC(=O)C2Cc3ccccc3CN2C(=O)c2ccco2)s1 (stereo not given)	40µM*	-8	-23%	13
CC1(C)Cc2c(C#N)c(N)sc(=S)c2CO1	45µM*	-2	11%	?
Cc1ccccc1CNC(=O)Nc1cccs1	20µM*	-14	1%	?

Assay outcomes as filed in PubChem BioAssay.
